# Source: PubChem BioAssay
# TRPML1 inh: inhibitors of human TRPML1 channel; Q9GZU1; TRPML1-inducible cells, Ca2+ dye fluorescence, FDSS; active compounds read low; inhibition of EC80 agonist-evoked calcium signal; activity change, negative = inhibition, % (test concentration not listed); hit rate 0.02% among 390,000; in the data active means activity change below about -50%; inconclusive means about -30% to -50%; inactive means above about -30%;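 further: stimulus is agonist 54-4 at its EC80 concentration; on the % scale 0 is the no-effect control and ±100 the full control effect; compound concentration not given in the record; the text of the record puts the active cut at -80%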
# Target sequence (Q9GZU1 whole entry, looked up): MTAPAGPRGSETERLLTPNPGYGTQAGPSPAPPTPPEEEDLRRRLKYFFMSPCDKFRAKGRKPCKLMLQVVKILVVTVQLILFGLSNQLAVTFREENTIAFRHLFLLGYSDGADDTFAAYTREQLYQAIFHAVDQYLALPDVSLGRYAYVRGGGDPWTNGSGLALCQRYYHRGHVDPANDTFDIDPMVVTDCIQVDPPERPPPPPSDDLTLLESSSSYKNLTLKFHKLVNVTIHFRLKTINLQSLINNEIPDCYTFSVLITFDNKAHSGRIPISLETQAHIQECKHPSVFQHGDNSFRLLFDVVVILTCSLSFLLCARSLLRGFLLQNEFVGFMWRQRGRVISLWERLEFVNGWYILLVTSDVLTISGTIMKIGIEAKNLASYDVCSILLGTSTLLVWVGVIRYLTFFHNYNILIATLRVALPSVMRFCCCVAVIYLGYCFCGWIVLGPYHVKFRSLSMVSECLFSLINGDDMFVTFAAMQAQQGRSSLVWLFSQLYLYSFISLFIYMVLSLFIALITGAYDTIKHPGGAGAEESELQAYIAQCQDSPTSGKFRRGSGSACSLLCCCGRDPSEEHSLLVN
#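 Calcium fluorescence in TRPML1-DL cells induced overnight with Tet: a 110 s read after compound pin addition, then a 110 s antagonist read after challenge with 54-4 at 4 uM final (EC80).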
# gsp ag: activates gsp, the McCune-Albright syndrome mutation; gsp mutant cells, cAMP HTRF, 30 min; control for the full effect not named in the record; Potency, µM (highest dose often 76.9 µM), for inactives: at the highest dose activation (cAMP increase), most hits filed as activators; hit rate 0.13% among 340,000; AID 624287; active = well fitted activation curve with a large enough effect; inconclusive = small, poorly fitted or top-dose-only effect, or another doubt; inactive = no such curve, though single readings can be large or run the other way; cell line not stated here;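 further: phosphodiesterase inhibitor Ro 20-1724 added with compounds to block cAMP breakdown; potency means the concentration at half of the fitted maximal effect; nearly all actives have a fitted effect of over 60% in size; about a fifth of the inactives were tested at one dose only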
#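 Cells in DMEM/10% FBS with G418 were pretreated with compounds in DMSO plus […] (300 uM stock) for 30 min at 37C. cAMP was measured by HTRF (cAMP-d2 plus anti-cAMP antibody-K) after 30 min at room temperature.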
# gsp antagonist: gsp mutant antagonism; Potency, µM (highest dose often 76.9 µM), without a hit: at the top dose activity change, negative = inhibition, actives largely listed as inhibitors; gsp-mutant cells, cAMP HTRF, 30 min; control for the full effect not named in the record; hit rate 0.4% among 340,000; active = falling curve of any shape with a large fitted effect; inconclusive = falling curve, mostly with a smaller effect; inactive = flat or rising curve; cell line not stated here;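 further: intracellular cAMP measured with PDE inhibitor Ro 20-1724 present during compound exposure; potency means the concentration at half of the fitted maximal effect; on the % scale 0 is the no-effect control and ±100 the full control effect; nearly all actives have a fitted effect of over 65% in size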
#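 G418-selected cells were plated in DMEM/10% FBS for 16-24 h at 37C, then treated with compounds plus the PDE inhibitor […] (300 uM solution added) for 30 min at 37C. Intracellular cAMP was measured by HTRF after 30 min lysis at room temperature.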
# Menin-MLL FL inh: displaces fluorescein MLL peptide from human menin; Fluorescence polarization, fluorescein-MLL peptide displacement from menin; FP activity change, % at 61.4 µM; 290,000 tested, under 10 active; AID 1766; inconclusive = falling polarisation curve, or a change in total fluorescence; inactive = total fluorescence flat and polarisation flat or rising; no compound was filed as active; the % refers to the polarisation; negative = inhibition;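 further: % of control where 0% means no effect; inhibitors lower the polarisation; unlabelled MLL peptide was the positive control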
# ClpP mod: qHTS Assay for Activators of ClpP; Potency, µM (series often up to 57.5 µM), without a hit: top-dose activity change, negative = active; ATP-dependent Clp protease proteolytic subunit (Bacillus subtilis (strain 168)), P80244; purified B. subtilis ClpP, FRET peptide cleavage, 20 min; AID 651965, 2013; hit rate 1.9% among 340,000; active = well fitted falling curve with a large enough effect; inconclusive = small, poorly fitted or top-dose-only effect; inactive = no such curve, though single readings can be large or run the other way; further: potency means the concentration at half of the fitted maximal effect; the source files actives as falling curves though it sought activators and does not explain the sign; nearly all actives have a fitted effect of over 65% in size; many hits overshoot -100%
# Target sequence (P80244 whole entry, looked up): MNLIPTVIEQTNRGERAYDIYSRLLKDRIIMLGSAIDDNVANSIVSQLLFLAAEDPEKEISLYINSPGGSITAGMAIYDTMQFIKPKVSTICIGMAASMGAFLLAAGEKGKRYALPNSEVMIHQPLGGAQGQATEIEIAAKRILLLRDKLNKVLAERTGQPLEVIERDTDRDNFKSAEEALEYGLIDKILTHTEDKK
#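 Purified B. subtilis ClpP, 10 microg/mL final in Tris/HCl pH8 with KCl, BSA, glycerol and Tween-20, cleaved an Abz/nitrotyrosine-quenched decapeptide. Fluorescence (ex 320, em 430) was read at 0 and 20 min at room temperature. Delta was normalized to 5.8 microM ADEP and DMSO/no-enzyme controls.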
# TRPML1 agonist: activates the human TRPML1 channel | Q9GZU1 | TRPML1-expressing cells, Ca2+ dye fluorescence, FDSS; host cell line not named in the record; reference of the full effect not given here | activation, % (no concentration beside the values) | hit rate 0.12% among 410,000 | AID 624414; in the data active = activation above about 50%; inconclusive = about 30% to 50%; inactive = below about 30%; further: 0% is about no effect; the text of the record puts the active cut at 80%
#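 TRPML1-DL cells, Tet-induced overnight (~16 h, 37 degrees C), loaded 45-90 min at room temperature with Ca8 no-wash calcium dye plus quencher. FDSS fluorescence: 10 s baseline, compound pin-transfer, 110 s agonist read, then EC80 54-4 (4uM final) and 110 s antagonist read.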
# * marks the source's active call; other numbers are inactive results; ? = inconclusive; . = not tested or not shown; & = joins results of further samples; [ ] = another dose, or the depositor's remark. The order is random; 2.1% or so of the library scored in one or more.
molecule	TRPML1 inh	gsp ag	gsp antagonist	Menin-MLL FL inh	ClpP mod	TRPML1 agonist
C#CCOCCOCCOCCNc1nc(N2CCOCC2)nc(N2CCN(C(=O)[C@H](Cc3cc4ccccc4[nH]3)n3cc([C@@H](N)Cc4ccc(O)cc4)nn3)CC2)n1	-11	-3%	-3%	0.8	-2.2%	0.0
CNC(=O)c1ccc(Nc2nnc(-c3ccc(C)c(S(=O)(=O)N4CCOCC4)c3)c3ccccc23)cc1	34	.	.	.	-8.3%	-0.7
CC1CCCCN1C(=O)CSc1nc(-c2ccccc2)cn1N (stereo unspecified)	-7	-19%[15.4 µM]	16%	2.4	-0.2%	-0.7
COc1ccc(C)cc1NC(=O)C1CC(=O)N(Cc2ccco2)C1 (stereo unspecified)	19	-6%	-2%	2.7	0.0%	0.1
CCOC(=O)Nc1ccc2c(CN3CCN(S(=O)(=O)c4ccccc4)CC3)cc(=O)oc2c1	-1	1%	-16%	-2.7	?	0.5
CC1CC1C(=O)OCC(=O)NC(=O)c1ccc(C(C)(C)C)cc1 (stereo unspecified)	-5	11%	7%	.	.	0.5
Cc1ccc(Oc2nc(C(F)(F)F)nc3ccccc23)cc1	42	3%	0%	4.4	-13%	2.7
CC1CN(c2cc(=O)n(-c3ccc(Cl)cc3)c(=O)[nH]2)CC(C)O1 (stereo unspecified)	-6	-5%	0%	13	-0.1%	0.2
Cc1nc(-c2nc(CC(=O)NNC(=O)c3ccc(Cl)cc3)cs2)cs1	7	-6%[15.4 µM]	-11%	-2.8	-9.1%	-0.6
COc1cccc(CN2CC(C(=O)N3CCN(C(C)C)CC3)CCC2=O)c1 (stereo unspecified)	-11	-12%	5%	-5.7	-16%	0.8
Cc1ccccc1-n1c(SCC(=O)c2cc(C)n(C)c2C)nnc1-c1cccnc1	-5	4%	-12%	2.9	-0.7%	0.4
Cc1noc(C)c1S(=O)(=O)N1CCC(C(=O)Nc2ccccn2)CC1	8	6%	5%	0.8	0.7%	0.7
O=C(CN1CCN(c2ccccc2F)CC1)c1ccc2c(c1)OCO2	0	16%	0%[15.4 µM]	2.8	-2.4%	1.1
Cc1[nH]n(-c2nc(-c3cccc([N+](=O)[O-])c3)cs2)c(=O)c1C	-9	-4%	-25%	2.5	3.7%	-1.4
C#CCN1C(=O)C(O)(CC(=O)/C=C/C=C/c2ccccc2)c2ccccc21 (stereo unspecified)	5	33%	5%	-1.9	1.0%	0.3
O=C(COC(=O)Cn1cnc2ccccc21)NCCc1ccccc1	-10	26%	9%	0.5	-0.2%	-1.0
Cc1ccc(-c2ccc(SCC(=O)NC3CCCC3)nn2)cc1	7	-4%	-13%	-3.4	-0.6%	3.2
O=C(CSc1nnc(Nc2ccccc2)s1)Nc1cccc(S(=O)(=O)N2CCCCC2)c1	22	11%	-18%	2.3	0.3%	-0.4
CC(C)C[C@H]1CNC(=S)N1CC1CCCN1C[C@H](CC(C)C)N1C[C@H](Cc2ccccc2)N(CC2CCCCCC2)C1=S (stereo partly specified)	-10	.	9%	.	-0.4%	-0.8
COc1ccc(N2CCN(C(=O)COC(=O)c3cccc(S(=O)(=O)Nc4ccccc4OC)c3)CC2)cc1	23	-16%	-9%	.	0.7%	4.1
CCCS(=O)(=O)N1CCN(c2ccccc2F)CC1	-8	-33%[inhibitor]	5%	-4.3	-0.9%	-0.7
CC(C)NC(=O)CN1C(=O)C(=O)c2ccccc21	1	?	8%	2.6	2.4%	-0.6
CCN(CC)c1cccc(OCC(=O)N(C)CCC#N)c1	3	-6%[15.4 µM]	-2%	?	0.5%	0.9
COc1ccc([N+](=O)[O-])cc1/C=N/NC(=O)Cc1ccccc1	-1	4%	-19%	-1.0	1.4%	0.2
Cc1ccc(C(=O)NCC(=O)Nc2ncccc2C)s1	-2	-7%[15.4 µM]	8%	.	.	-0.3
Cc1ccc(NC(=O)COC(=O)CCCC2=NS(=O)(=O)c3ccccc3N2)cc1C	9	18%	2%	.	0.4%	-0.8
COc1cc(OC)cc(C(=O)N/N=C2/SCC(=O)N2Cc2ccco2)c1	-3	-8%[15.4 µM]	1%	0.9	0.3%	-0.1
COc1cc(-c2nnn(CC#N)n2)ccc1OCc1ccccc1	-6	-2%	-26%	-5.3	-3.4%	-0.5
C=CCN(c1ccccc1)S(=O)(=O)c1cccc(C(=O)NNC(=O)c2ccncc2)c1	10	-17%[15.4 µM]	-4%	.	.	-0.5
COc1cccc(CCc2nnc(CCC(=O)N3CCN(Cc4ccccn4)CC3)o2)c1	2	-13%	1%	-3.6	.	0.3
COc1ccc(C(=O)C[n+]2cccc(C)c2)cc1	-1	-7%	12%	2.4	-1.1%	0.3
O=C(Nc1ccc(O)c2c(=O)cc(-c3ccccc3Cl)oc12)c1cccc(Cl)c1	13&-28	19%	2%	-4.2&-0.3	-3.0%	0.8&-0.5
Nc1nn(S(=O)(=O)c2ccccc2)cc1-c1cccc([N+](=O)[O-])c1	-8	-14%[15.4 µM]	-53%	4.9	.	-0.4
Cc1ccc(NC(=O)c2cc(C)on2)cc1	-11	14%	0%	2.9	-2.9%	2.2
COc1ccc(C(=O)Oc2cc(N)n(S(=O)(=O)c3ccccc3)n2)cc1	10	3%	8%	0.5	0.7%	1.5
COc1ccc(C2CC(=O)Nc3cc(OC)c(OC)cc32)cc1 (stereo unspecified)	-15	-19%	.	.	0.2%	-0.5
COc1ccc(-c2cc(-n3c(C(F)(F)F)nc4ccccc43)n(CCC#N)n2)cc1	50	3%	10%	1.4	0.5%	4.8
CN1CCC(NC(=O)Nc2cccc(C(F)(F)F)c2)CC1	21	20%	2%	0.8	-1.0%	0.5
CN(C)c1ccc(CNC(=O)C2CCCN(S(=O)(=O)c3ccc4c(c3)CCCC(=O)N4)C2)cc1 (stereo unspecified)	-15	.	.	.	-2.0%	1.1
COc1cc(OC)c(OC)cc1/C=N/n1c(C)nc2ccccc2c1=O	20	-15%	3%	1.1	.	-0.2
Cn1cc(-c2cc3n(n2)CCC(=O)N3CCCC(=O)Nc2ccccc2F)c2ccccc21	-27	.	.	.	-6.6%	0.6
Cc1nc2ccc(-c3nc4ccccc4[nH]3)cc2[nH]1	-1	-3%	-9%	0.5	.	-0.5
Cc1nc2ccccc2cc1C(=O)N/N=C/c1cccs1	1	28%	8%	1.2	-2.7%	0.3
COc1ccc(Cn2ccc3nc(C)c(C(=O)NCc4ccc(SC)cc4)cc3c2=O)cc1	-19	.	.	.	184%	0.5
CCCCN(C)C(=O)Cn1ncc2c([nH]c3ccc(C)cc32)c1=O	9	.	.	.	4.2%	1.5
CN1/C(=C\C(=O)c2oc3ccccc3c2N)C(C)(C)c2ccccc21	33	-34%[inhibitor]	?	-1.5	?	1.6
Cc1cccc(C)c1NC(=O)CSc1ncc2c(n1)-c1ccc(Cl)cc1N(Cc1ccccc1)S2(=O)=O	7	.	.	.	4.3%	-0.9
CCOC(=O)c1c(C)[nH]c(CCC(=O)NCCCN2CCN(c3cc(C)ccc3C)CC2)c1C	14	.	.	.	-4.1%	0.7
COc1ccc(OC)c(-c2csc(NC(=O)CSCc3c(C)noc3C)n2)c1	24	5%[15.4 µM]	?	.	.	4.0
COc1ccc(CNC(=O)Cn2nc(C(F)(F)F)c3c2CCC3)cc1	-22	-43%[inhibitor]	-6%	-2.7	0.4%	1.3
O=C(CCC1CCCN(C(=O)c2cccs2)C1)N1CCN(c2ccccn2)CC1 (stereo unspecified)	6	5%	-10%	0.8	.	1.0
O=C(CSc1nncs1)Nc1cccc2ccccc12	-7	0%[15.4 µM]	16%	.	0.0%	1.5
c1coc(-c2nc3nc4ccccc4n3nc2-c2ccco2)c1	8	-18%	-11%	11	1.0%	1.2
COc1ccc(S(=O)(=O)N2c3cc(Cl)ccc3Oc3nc4ccccc4nc32)cc1	13	?	6%	1.1	-10%	1.6
CCCN(CC(=O)Nc1ccc(F)c(F)c1F)C(=O)c1cc(S(=O)(=O)N(C)C)ccc1N1CCCC1	-6	-56%[inhibitor]	-12%	.	-0.6%	0.7
CCc1noc(C)c1C(=O)Oc1ccc(N(C)S(=O)(=O)c2ccc(C)c(C)c2)cc1	32	-52%[inhibitor]	-9%	.	-9.7%	0.1
O=C(OCc1cn([C@@H]2C[C@H](c3ccccc3)N(C(=O)C3CCCCC3)C[C@H]2O)nn1)c1ccccc1	-12	-9%	.	.	1.0%	-0.4
Cc1cc(N2CCOCC2)nc2ccc(NC(=O)CCC(=O)N3CCN(c4ccccc4)CC3)cc12	20	-10%	-6%	11	.	0.7
O=C(COC(=O)CCc1ccc(S(=O)(=O)N2CCOCC2)cc1)Nc1ccccc1OC(F)F	-15	-23%	1%	.	.	3.4
CC1CC(C)CN(c2ccc(C(=O)NCc3ccc4c(c3)OCO4)cc2[N+](=O)[O-])C1 (stereo unspecified)	49	-1%	-14%	-1.2	-3.2%	2.7

# New compounds follow
molecule	TRPML1 inh	gsp ag	gsp antagonist	Menin-MLL FL inh	ClpP mod	TRPML1 agonist
COc1nc(N)nc(N)c1NS(=O)(=O)c1ccc(C)cc1	37	17%	7%	.	-0.1%	1.2
COc1cc(/C=C2/SC(=O)NC2=O)ccc1OCc1ccccc1	2	-41%[inhibitor]	32µM*	-5.9	-8.5%	1.6
COc1ccc(S(=O)(=O)N(C)C[C@H]2Oc3ccc(NC(=O)Nc4ccccc4)cc3C(=O)N([C@H](C)CO)C[C@@H]2C)cc1	8	.	-12%	.	0.3%	-0.5
COc1ccc(N2C(=O)C3C4C=CC(c5ccccc5)(C3C2=O)C2C(=O)N(c3ccc(OC)cc3)C(=O)C42)cc1 (stereo unspecified)	27	8%[15.4 µM]	.	-0.6	.	2.5
CCC(C)Nc1nc(CN2CCOCC2)nc2sc3c(c12)CCC3 (stereo unspecified)	12	2%	-28%	-0.5	-10%	1.6
COc1ccc(-c2c(C(F)(F)F)nn(C)c2NC(C)=O)cc1	-19	31%[15.4 µM]	10%	3.0	.	0.3
COc1cc(C=C(C#N)c2ccc([N+](=O)[O-])cc2)ccc1O	14	13%	.	.	-1.1%	0.7
CCOc1ccc(-c2nnc(N(CC)C(=O)C3CCC3)s2)cc1	3	-23%	-34%	-0.9	?	1.7
CC(C)CC(=O)NC(=S)Nc1ccccc1N1CCCC1	47	-16%	-7%	-2.1	-1.2%	-1.2
COc1ccc(NC(=O)N(C)C[C@H]2Oc3c(NC(=O)Nc4ccccc4)cccc3C(=O)N([C@H](C)CO)C[C@@H]2C)cc1	11	.	-5%	.	-0.9%	0.4
